Compound activity (PubChem BioAssay)
HSD17B inhib = blocks hydroxysteroid 17-beta dehydrogenase activity | Q99714 | recombinant HSD17B10, NADH fluorescence kinetic; many of its hits are not listed in these tables | Potency, µM (top dose mostly 57.1 µM), inactives show at the highest dose activity change, negative = inhibition, hits mostly inhibitors | 7.6% of 75,000 active | AID 893; active means well fitted inhibition curve with a large enough effect; inconclusive means small, poorly fitted or top-dose-only effect; inactive means no such curve, though single readings can be large or run the other way;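 further: the protocol describes HADH2 (HSD17B10) and not the HSD17B4 of the title; nearly all actives have a fitted effect of over 70% in size; most hits overshoot -100% by far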
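Activity followed as NADH fluorescence increase (ex 360, em 450 nm) every 30 seconds for 4 min, using final 90 uM beta-hydroxybutyryl CoA and 1 mM NAD+. Recombinant His-tagged enzyme, 20 nM, pH 9.0 Tris buffer, 15 min compound preincubation.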
* hit, by the source's call; ? = inconclusive; [ ] = remark or other dose. On the % scale 0 is the no-effect control and ±100 the full control effect; potency means the concentration at half of the fitted maximal effect. An excerpt; the hit share may differ from the screen's.

Structure	HSD17B inhib
O=C(COC(=O)c1ccccc1NC(=O)c1ccco1)NCCC1=CCCCC1	25µM*
O=C(c1ccncc1)N1CCC2(CCN(Cc3ccccc3)CC2)CC1	-3%
CCOC(=O)C1=C(c2ccccc2)NC(SCC(=O)Nc2ccc(C)cc2)=C(C#N)C1c1ccco1 (stereo unspecified)	59%[activator]
COc1cccc(Cn2c(=O)c(C)nc3cnc(N4CCOCC4)nc32)c1	?
COc1ccc(NC(=O)c2cc(Cl)ccc2NC(=O)c2ccco2)c(OC)c1	32µM*
CN1C(=O)C(O)(CC(=O)c2ccccn2)c2cc(Br)ccc21 (stereo unspecified)	4%
C=C(C)CSc1nnc2[nH]c(=O)cc(N)n12	-1%
CCN(CC(N)=O)S(=O)(=O)c1ccc(Br)cc1	1%
CCN(CC)S(=O)(=O)c1cc(Br)ccc1OC	0%
CCCCCCCCCCCCCCCC(=O)OC/C=C(C)/C=C/C=C(C)/C=C/C1=C(C)CCCC1(C)C	-2%
Cc1cc(NS(=O)(=O)c2ccc(NC(=O)Nc3ccc4c(c3)OCO4)cc2)no1	9%
CC(=O)c1ccc(C(C)(C)c2ccc(C(C)=O)s2)s1	-11%
CCCCCn1c(CN2CCN(c3cc(Cl)ccc3C)CC2)nc2c1c(=O)[nH]c(=O)n2C	-3%
CN1CCN(c2ccccc2NC(=O)c2cccc(OCc3ccccc3)c2)CC1	5%
CC(Oc1ccc(Cl)cc1Cl)C(=O)NCCN1CCOCC1 (stereo unspecified)	-6%

Next entries
Structure	HSD17B inhib
CC(C)Oc1ccc(C(CC(=O)O)NC(=O)C2CCCCC2)cc1 (stereo unspecified)	10%
CC(=O)N1CCc2ccc(C(=O)CN3CCN(c4cccc(C)c4C)CC3)cc21	-6%
Cc1ccc2[nH]c(=O)c(CN(CCCO)S(=O)(=O)c3c(C)ccc4nsnc34)cc2c1	5%
Cn1c(SCC(=O)Nc2sc3c(c2C#N)CCC3)nnc1C1COc2ccccc2O1 (stereo unspecified)	-25%
COc1ccccc1-c1ccc(=O)n(CC(=O)NCc2ccc3c(c2)OCO3)n1	1%
O=C(c1ccco1)N1CCN(CC(=O)N2CCCc3c2c(=O)oc2ccc(O)cc32)CC1	0%
Cc1nn(-c2ccccc2)c2[nH]c(=O)c(CNc3ccc4c(c3)OCCO4)cc12	?
Nc1[nH]nc2nc(N3CCCC3)nc(-c3ccccc3)c12	-18%
COc1ccc(C(=O)N2CCC3(CCCN(Cc4ccc(C#N)cc4)C3)CC2)cc1	-5%
Cc1nn(-c2nc3ccccc3s2)c(N)c1Sc1ccc(F)cc1	2%
CCOC(=O)CN1C(=O)C(CC)Oc2ccccc21 (stereo unspecified)	7%
Cc1cc(NC(=O)c2cnn3cccnc23)nn1CC(=O)Nc1cccnc1	-4%
N#CCSCC(=O)Nc1ccc(F)cc1	5%
Cc1noc(C)c1-c1nccc(NCCN2CCOCC2)n1	5%
O=C(c1cccc(F)c1)N1CCC2(CC1)CN(c1cccc(-c3ccccc3)c1)C2	?

Going on with the list:
Structure	HSD17B inhib
CCCC(c1nnnn1CS(=O)(=O)c1ccc(C)cc1)N1CCN(c2ccc(F)cc2)CC1 (stereo unspecified)	-10%
COc1ccc(-c2nc(CSCC(=O)N3CCC(C(N)=O)CC3)c(C)o2)cc1OC	25µM*
O=C(O)/C=C\C(=O)Nc1ccccn1	10%[11.4 µM]
COc1ccccc1-n1cnnc1SCC(=O)Nc1cc(C(C)(C)C)nn1-c1ccccc1	8%
C=C(C)CSCc1nc2ccccc2[nH]1	1%
COCCn1c(=O)c(-c2cccc(C#N)c2)nc2cnc(OCc3ccccc3)nc21	?
Cc1nc2ccccc2n1CCC(=O)Nc1cccc(F)c1	6%
O=C(NCc1ccco1)c1cc2c(s1)CCCCC2	?
O=C(O)CCc1ccc(-c2ccccc2)n1Cc1ccco1	32µM*
CC(=O)N1CCC(C(=O)Nc2ccccc2)(N(Cc2ccccc2)C(=O)c2cccnc2)CC1	5%
O=c1c2ccccc2nc2n1CCS2	7%
O=C(NCC1CCS(=O)(=O)C1)Oc1ccccc1 (stereo unspecified)	-2%
O=S(=O)(c1ccccc1)N1CCC2(CCCN(c3ccccc3)C2)CC1	-20%
COc1cccc(Cn2c(=O)c(-c3ccc(Cl)cc3)nc3cncnc32)c1	?
CCN(CC)CCNC(=O)C1c2ccccc2C(=O)N(C)C1c1cn(C)c2ccccc12 (stereo unspecified)	9%

4 entries from above, field by field.
> COc1ccc(NC(=O)c2cc(Cl)ccc2NC(=O)c2ccco2)c(OC)c1
  HSD17B inhib: 32µM*

> CC(=O)c1ccc(C(C)(C)c2ccc(C(C)=O)s2)s1
  HSD17B inhib: -11%

> C=C(C)CSCc1nc2ccccc2[nH]1
  HSD17B inhib: 1%

> COc1ccccc1-c1ccc(=O)n(CC(=O)NCc2ccc3c(c2)OCO3)n1
  HSD17B inhib: 1%

(continued)
Structure	HSD17B inhib
COc1cc(OC)c2c(=O)c(-c3ccccc3)c(C)oc2c1OC	-1%
CCOC(=O)N1CCN(C(=O)c2ccc(CNS(=O)(=O)c3ccc(C)cc3)cc2)CC1	3%
Cn1nc(-c2ccc(N3CCOCC3)c(NC(=O)c3ccccc3)c2)c2ccccc2c1=O	?
CCOc1ccccc1-n1c(SCC(=O)NC2CCCC2)nnc1-c1ccoc1C	2%
CS(=O)(=O)N(CCc1ccccc1)CC(=O)NCc1ccccn1	2%
N#CC(C(=O)c1ccc(S(=O)(=O)N2CCCCCC2)cc1)c1nc2ccccc2[nH]1 (stereo unspecified)	?
O=C(OCn1nnc2ccccc2c1=O)c1ccc2ncsc2c1	-5%
Cc1ccc(-c2noc(CNCCCN(C)C)n2)cc1	6%
CSc1nc2ccccc2n1CC(=O)Nc1ccccc1	-9%
Cc1noc(/C=C/N(C)C)c1S(=O)(=O)N1CCCC(C(=O)NCCC2=CCCCC2)C1 (stereo unspecified)	-5%
O=P1(O)C=C(c2ccccc2)NC(c2ccccc2)=C1	0%
O=C(O)CCCC(=O)Nc1cccc(C(F)(F)F)c1	3%
O=C1c2ccncc2C(=O)N1CO	-3%
CN1CCN(c2ccccc2NC(=O)c2cc(Br)ccc2Cl)CC1	12%
CCC1=C(OC(=O)N(CC)CC)N2C(=O)OC(=NCCOC)[C@]2(C)[C@H]2C1=CC[C@H]1C(=O)N(C)C(=O)[C@H]12	7%

Next section
Structure	HSD17B inhib
Cn1c(=O)c2c(nc(CN3CCC(C(N)=O)CC3)n2CCc2ccccc2)n(C)c1=O	-4%
CCC(=O)OCCn1c(=O)c2cc3c(=O)n(CCOC(=O)CC)c(=O)c3cc2c1=O	6%
CCC1CCCCN1CCCNC(=O)COc1cc(=O)n(C)c2ccccc12 (stereo unspecified)	-7%
N#CC(C(=O)NCc1ccco1)c1nc2ccccc2nc1N1CCOCC1 (stereo unspecified)	-15%
COC(=O)c1ccccc1NC(=O)C1CCCCC1C(=O)O (stereo unspecified)	?
CC1(C)SC2c3ccccc3C(=O)N2[C@@H]1C(=O)NCc1ccco1 (stereo partly specified)	0%
COc1cccc(Cn2c(=O)cnc3cnc(Oc4ccccc4)nc32)c1	5%
COc1ccccc1OCc1nc2ccccc2[nH]1	10%
COc1ccc(C2C(C(C)=O)=C(C)Nc3ncnn32)cc1OC (stereo unspecified)	2%
CN1CCN(C(=O)c2ccc(COc3ccc(Cl)cc3Cl)cc2)CC1	8%
O=C(Nc1ccccn1)N1CCOCC1	1%
N#Cc1ccc(CSc2nnc(NC(=O)CN3C(=O)C4CC=CCC4C3=O)s2)cc1 (stereo unspecified)	-6%
O=C1CN(c2ccccc2Cl)C(=O)CN1c1ccccc1Cl	7%
CO[C@@H]1/C=C\CC(=O)N[C@@H](C)C(=O)OC[C@@H](OC)[C@H](C)/C=C\CC(=O)OC[C@H]1C	0%[11.4 µM]
CCCSc1oc(-c2ccco2)nc1S(=O)(=O)c1ccccc1	-17%

(listing goes on)
Structure	HSD17B inhib
CC(=O)c1cnc(Nc2nc(C)c3ccccc3n2)nc1C	5%
COc1ccc(OC)c(C(=O)CSc2nnc(-c3cccs3)o2)c1	32µM*
Cc1ccc(S(=O)(=O)N2CCOCC2)cc1C(=O)NCc1ccco1	1%
COc1ccc(NC(C)=O)cc1NC(=O)CN1CCN(C2c3ccccc3-c3ccccc32)CC1	-7%
COc1ccc(-n2c(=O)c(CCc3ccccc3)nc3cncnc32)cc1	1%
CCOC(=O)CNC(=O)CSc1ncnc2c1cnn2Cc1ccccc1	0%
CC(=O)N=c1sc(C(C)(C)C)c(C)n1C	-5%
COc1cc(C2CC(=O)c3cnc(NC(=O)COc4ccccc4)nc3C2)cc(OC)c1OC (stereo unspecified)	9%
COc1ccccc1CN1CCC2(CC1)CCN(S(C)(=O)=O)CC2	-5%
COc1ccc(OC)c(S(=O)(=O)N2CCN(C)CC2)c1	17%
CCN1CCN(C(=O)C2CC(c3ccc(F)cc3)=NO2)CC1 (stereo unspecified)	5%
Cc1ccc(C)c(SCC(=O)Nc2nnc(-c3ccccc3)o2)c1	-17%
CCOC(=O)c1ccc2nc(NC(=O)c3cccs3)sc2c1	?
O=S(=O)(NC1CC2CCC1C2)c1ccc(Br)s1 (stereo unspecified)	-5%
O=C(NCc1ccco1)c1cnn2c1NC(c1ccc(Br)cc1)CC2C(F)(F)F (stereo unspecified)	-7%

The listing continues:
Compound | HSD17B inhib
Cn1c(=O)c2cc(S(=O)(=O)NC(C(=O)NCc3cccnc3)c3ccccc3)ccc2n(C)c1=O (stereo unspecified) | 7%
O=C(O)c1ccc(NS(=O)(=O)/C=C/c2ccccc2)cc1O | ?
O=C(O)c1ccc(NCc2nc3cc4ccccc4cc3[nH]2)cc1 | 2%[11.4 µM]
C1CCC(OCCN2CCN(CCOC3CCCCC3)CC2)CC1 | 6%
CCCCCCN(CCCCCC)C(=O)Cc1c(-c2ccc(Cl)cc2)[nH]c2ccc(Cl)cc12 | 32µM*
Cc1cc(NC(=O)CCC2CCCC2)no1 | 0%
CCN1CCCC1CNC(=O)CSc1cc(=O)n(C)c2cc(Cl)ccc12 (stereo unspecified) | -3%
O=C(c1cccc2ccccc12)N1CCN(CC2CC=CCC2)CC1 (stereo unspecified) | 2%
CC(=O)Nc1ccc(S(=O)(=O)N2CCC(NC(=O)C(Cc3cccn3C)NC(C)=O)CC2)cc1 (stereo unspecified) | -6%
CCn1nnnc1SCC(=O)Nc1ccc(OCc2ccccc2)cc1 | 3%
Oc1ccccc1C1=Nc2nc3ccccc3n2C(c2ccccc2)C1 (stereo unspecified) | -11%
CCc1ccc(NC(=O)CCn2c(=O)oc3ccccc32)cc1 | -1%
O=C(O)COc1ccc(Cl)cc1CO | 5%
FC(F)(F)c1ccccc1-c1nccc(NCc2cccs2)n1 | -20%
CCC(=O)Nc1cccc(NC(=O)CSc2nnc(C(C)C)n2CC)c1 | 0%

7 records drawn at random from those above, as already listed:
Compound | HSD17B inhib
C=C(C)CSc1nnc2[nH]c(=O)cc(N)n12 | -1%
O=c1c2ccccc2nc2n1CCS2 | 7%
CSc1nc2ccccc2n1CC(=O)Nc1ccccc1 | -9%
O=C(O)CCc1ccc(-c2ccccc2)n1Cc1ccco1 | 32µM*
CC(Oc1ccc(Cl)cc1Cl)C(=O)NCCN1CCOCC1 (stereo unspecified) | -6%
Cc1noc(/C=C/N(C)C)c1S(=O)(=O)N1CCCC(C(=O)NCCC2=CCCCC2)C1 (stereo unspecified) | -5%
CCN(CC(N)=O)S(=O)(=O)c1ccc(Br)cc1 | 1%

Later entries
Compound | HSD17B inhib
O=C(c1cc2ccccn2n1)N1CCCC1 | -8%
Cc1cccc(N2CCN(C(=O)Cn3nc(Cc4ccncc4)c4ccccc4c3=O)CC2)c1C | 2%
Cc1nnc(Oc2ccccc2)c2ccccc12 | -3%
c1ccc(Cn2nnnc2C(c2ccncc2)N2CCOCC2)cc1 (stereo unspecified) | 3%
O=C(Cc1ccccc1)N(c1ccc(F)cc1)C1C=CS(=O)(=O)C1 (stereo unspecified) | 3%
O=C(O)CC(NC(=O)OCc1ccccc1)c1ccccc1 (stereo unspecified) | 3%
CC1=C(C#N)C(C(F)(F)F)(C(F)(F)F)N=C(c2ccco2)N1 | -5%
CCCCC(SCC(=O)Nc1ccccc1)C(=O)O (stereo unspecified) | ?
O=C(Nc1ccccc1C(=O)O)c1ccc2ccccc2n1 | -4%
COc1cc(S(=O)(=O)N(Cc2cccnc2)Cc2ccco2)ccc1-n1cnnn1 | 2%
CCN(CCCNC(=O)CCCCn1c(=O)[nH]c2ccccc2c1=O)c1ccccc1 | -13%
COc1ccccc1OCCOc1ccccc1/C=N/n1cnnc1 | 4%
COc1ccccc1-n1c(CNC(=O)c2ccco2)nnc1SCC(=O)Nc1ccc(F)cc1 | 4%
COC(=O)c1ccc2c(=O)n(CCCN3CCCC3=O)c(=S)[nH]c2c1 | 2%
COCCNC(=O)CSc1nc(-c2ccc(OC)c(OC)c2)cc(C(F)(F)F)n1 | 4µM*

(more compounds)
Compound | HSD17B inhib
COc1ccc(N2C(=O)CCC(C(C)=O)=C2C)cc1 | -3%
COc1ccccc1N1CCN(c2ncnc3c2oc2ccccc23)CC1 | ?
CCOC(=O)c1csc(NC(=O)c2cc(OC)c(OC)c(OC)c2)n1 | -2%
O=c1cc(O)nc(SCc2ccccc2)[nH]1 | -28%
Cc1ccc(NC2c3ncccc3C(=O)N2C2CCCCC2)cc1C (stereo unspecified) | -5%
CCN(CC(=O)Nc1ccccc1C(=O)OC)S(=O)(=O)c1ccccc1 | -6%
